Beta apoptosis = beta cell apoptosis inhibition; INS-1E cytokine-induced death, ATP luminescence, 48 h; percent of positive-control rescue, neutral wells zero; protection from apoptosis, % (no concentration beside the values); hit rate 0.8% among 300,000;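 active means all replicates at 75% or more, or half of them and the mean; inconclusive means half reach 75% but not the mean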;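 further: 0% = cytokine-treated negative control wells and 100% = positive control rescue; higher means more ATP so stronger rescue from cytokine killing; wells of about 40 µL received 100 nL stock; the first replicate is given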
Calb FLC = affects C. albicans growth with fluconazole | C. albicans CaCi-2 (fluconazole-resistant clinical isolate) + fluconazole, Alamar Blue growth, 48 h | growth inhibition, % (test concentration not listed) | hit rate 0.57% among 300,000;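 active means most replicates above 75%; inconclusive means exactly half above 75%; inactive means most below 75%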;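 further: all wells also contain fluconazole at 8 µg/ml as a sub-toxic cotreatment; 0% = median of DMSO wells and 100% = median of geldanamycin control wells; wells of about 8 µL received 7.5 nL stock; the first replicate is given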
MLL AF4-AF9 inh = blocks AF4 peptide binding to human AF9 | P42568 | hit rate 0.47% among 350,000 | inhibition, % at 10 µM | AlphaScreen, biotin-AF4 peptide binding to FLAG-AF9;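 active means every replicate reaching a set inhibition limit, whatever the replicate mean, cut at about 25% in these data; inconclusive means mean inhibition reaches that limit but some replicates miss it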;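 further: 0% = plate neutral control median and 100% = total signal loss; the record names both 10 and 1 µM as test concentration; the first replicate is given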
Target sequence (P42568 whole entry, looked up): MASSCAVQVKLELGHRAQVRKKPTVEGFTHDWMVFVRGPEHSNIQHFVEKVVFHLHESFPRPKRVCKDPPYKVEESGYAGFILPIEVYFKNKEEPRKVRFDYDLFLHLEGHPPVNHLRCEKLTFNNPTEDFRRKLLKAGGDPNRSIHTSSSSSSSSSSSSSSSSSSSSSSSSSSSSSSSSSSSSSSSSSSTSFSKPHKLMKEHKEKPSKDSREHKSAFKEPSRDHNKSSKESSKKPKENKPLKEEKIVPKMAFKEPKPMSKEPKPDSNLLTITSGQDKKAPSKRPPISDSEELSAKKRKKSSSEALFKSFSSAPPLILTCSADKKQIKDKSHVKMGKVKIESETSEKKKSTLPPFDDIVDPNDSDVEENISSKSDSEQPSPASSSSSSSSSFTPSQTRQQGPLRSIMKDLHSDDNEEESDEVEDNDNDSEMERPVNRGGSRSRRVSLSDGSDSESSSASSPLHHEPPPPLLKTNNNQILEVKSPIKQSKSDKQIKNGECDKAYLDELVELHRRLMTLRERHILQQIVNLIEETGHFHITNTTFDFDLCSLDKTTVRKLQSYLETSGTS
Ecoli rRNA inh = inhibitors of bacterial rRNA selective over humanized ribosomes; E. coli WT GFP vs humanized-ribosome RFP mutants, fluorescence, 24 h; active compounds read low; DMSO median 0, no signal -100; GFP signal change (wild-type ribosome), % (no concentration beside the values); hit rate 1.6% among 350,000;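 active means significant combined selectivity score with lowered wild-type GFP, culture density cut under 30%, mutant RFP and density less affected; inactive means any of these conditions unmet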; further: one replicate is shown; some compounds called inactive have numbers as strong as hits
Vif A3G = HIV-1 Vif–A3G interaction blockers – biochemical, TR-FRET, GST-Vif 1-94, biotin-A3G peptide, dose response retest, primary screen (AID 1117319); TR-FRET GST-Vif / biotin-A3G peptide binding; higher % means a stronger effect; test concentration not given here; strong numbers were not always called active; one-dose inhibition, %; IC50 in µM for titrated hits; hit rate 0.57% among 260,000;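 active means above the screen mean plus three standard deviations and confirmed in dose response; inconclusive means results disagree or hit not tested in dose response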;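 further: Vif residues 1-94 fused to GST binding biotinylated APOBEC3G peptide 110-148; 0% = full assay without inhibitor and 100% = GST in place of GST-Vif; retest series ran down from 100 µM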
T cruzi repl = blocks replication of Trypanosoma cruzi. T. cruzi beta-gal in NIH3T3, luminescence, 90 h. hit rate 1.4% among 300,000. AID 1885. inhibition, % (no concentration beside the values);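 active means mean inhibition across valid replicates above about 55%, limit read from the data; inconclusive means mean below that limit but half or more replicates reach it; inactive means mean below it, under half of replicates reach it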;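 further: signal also drops with host cell toxicity which is not excluded here; 0% = plate median of DMSO wells and 100% = zero luminescence signal; higher percent means less beta-gal luminescence so fewer parasites; stock transfer was 50 nL into about 50 µL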
RanGTP-Imp inh = disruptors of Ran-importin-beta complex formation – biochemical, FRET, CFP-Ran, YFP-importin-beta, homogeneous, primary screen; cell-free CFP-Ran/YFP-importin-beta FRET ratio; inhibition, % (test concentration not listed); hit rate 1.1% among 300,000; AID 2216;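 active means most replicates above 15%; inconclusive means exactly half above 15%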;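 further: 0% = DMSO wells and 100% = Ran loaded with GDP instead of GTP; wells of about 40 µL received 100 nL stock; the first replicate is given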
A1 inh = inhibitors of the anti-apoptotic protein A1, read as caspase activation. MEF A1-2A-BIM cells, Caspase-Glo 3/7 luminescence, 3 h; percent of clofoctol response, vehicle zero. caspase activation, % (no concentration beside the values). hit rate 0.066% among 330,000. AID 2462;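 active means over half of replicate activation scores above 10%, or exactly half above 10 with the replicate mean above 10; inconclusive means replicate mean below 10 yet half the replicates above 10; inactive means over half of replicates below 10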;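 further: wells of about 30 µL received 50 nL stock; many hits fall short of the cut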
Ecoli rRNA inh OD600 = recorded beside Ecoli rRNA inh, whose call it bears; OD600 change, %; measured here: OD600 growth;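 optical density of the mix in the first replicate; 0 = DMSO median and -100 = no signal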
Ecoli rRNA inh RFP = recorded beside Ecoli rRNA inh, whose call it bears; RFP signal change, %; measured here: RFP humanized mutant strains;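 first replicate; 0 = DMSO median and -100 = no signal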
The depositor's hits bear a star; ? = inconclusive; . = not tested or not shown; & = joins results of further samples. These rows are one share of the data (hit frequency here may not be typical).

SMILES	Beta apoptosis	Calb FLC	MLL AF4-AF9 inh	Ecoli rRNA inh	Ecoli rRNA inh OD600	Ecoli rRNA inh RFP	Vif A3G	T cruzi repl	RanGTP-Imp inh	A1 inh
CN(/N=C/c1c[nH]c2ccccc12)c1cnn(-c2ccc(F)c(Cl)c2)c(=O)c1Cl	0	0	.	.	.	.	-1%	-4	-0.2	-0.8
C=CCNC(=O)CC(=O)N/N=C/c1cccc(Br)c1	3	-5	1.6	8	10	3.2	3%	-2	7.2	0.1
COC(=O)[C@H]1[C@H]2C[C@H]3c4[nH]c5ccccc5c4CCN3C[C@H]2CC[C@@H]1O	-7	0	0.3	.	.	.	.	8	43*	-0.3
Cc1cc(=O)n2[nH]c(-c3ccco3)nc2n1	3	3	.	.	.	.	10%	9	-8.2	-0.3
O=C(Nc1cc(Cl)ccc1O)C1CC(c2ccccc2Cl)=NO1 (stereo not given)	-4	-11	-0.3	-25	-58	18	0%	7	-7.0	-1.1
CCOc1ccc(NC(=O)c2cnccn2)cc1	-3	-7	.	.	.	.	8%	-9	-0.3	-3.8
CSc1ccc(Cl)c(C(=O)N2CCN(CC(=O)N3CCCC3)CC2)c1	-2	.	-3.5	7	11	-0.3	.	.	.	-1.4
Cc1cccc(NC(=O)CCN2C(=O)c3ccccc3C2=O)c1	-5	6	-3.4	4	4	-0.2	.	-8	0.3	-0.2
CC(C)(Oc1ccc(Cl)cc1)C(=O)N/N=C/c1cn[nH]c1-c1ccccc1	-3	-17	.	.	.	.	-2%	-24	0.3	0.5
CCN(Cc1ccc(OC)c(F)c1)C(=O)/C=C/c1ccc(S(=O)(=O)N2CCOCC2)cc1	0	.	2.0	-1	-4	7.2	-1%	.	.	-1.0
COc1nc2ccccc2nc1OC	.	1	0.2	9	6	-0.9	-4%	-9	6.8	0.8
CC1CCCC(C)N1C(=O)COC(=O)c1ccco1 (stereo not given)	-3	.	-2.5	9	11	1.8	-4%	.	.	0.4
COc1ccc(OCC(=O)N2CCN(C(=O)c3ccc(F)cc3)CC2)cc1	-2	4	-1.0	6	4	0.7	.	-4	-1.1	0.8
CC[n+]1c(/C=C(/C)SC)sc2ccccc21	7	-2	.	.	.	.	.	5	0.5	-0.7
COc1cc(/C=C/C(=O)O)cc(S(=O)(=O)Nc2ccccc2SC)c1OC	-5	-1	-2.2	2	12	-1.8	20%	-1	-1.7	0.2
COc1ccc(-c2noc(CN3CCN(c4ccccc4F)CC3)n2)cc1OC	2	20	.	.	.	.	-2%	0	1.3	-0.5
C[N+](C)(C)CCOP(=O)([O-])OC[C@H](O)CO	6	13	-1.3	6	8	-0.2	-6%	-21	-2.3	0.5
Cc1ccc(N2C(=O)CC(Cc3ccc(Cl)cc3)C2=O)cc1 (stereo not given)	2	-10	-2.7	5	0	-2.6	.	-8	1.2	0.4
Cc1cccnc1NC(=O)Nc1ccc(F)cc1	0	-16	.	.	.	.	1%	-14	1.4	-2.5
CCOC(=O)C1CCN(C(=O)CN2C(=O)c3cccnc3Oc3ccc(C)cc32)CC1	2	-1	0.3	7	3	-2.7	14%	-12	-3.3	-0.1
CCCC(=O)Nc1sc(C(=O)Nc2cccc(N)c2)c(C)c1C(=O)OC	8	5	-1.1	-12	-9	-1.5	.	29	-3.7	-1.6
Cc1c(C(=O)c2ccc(Cl)c(Cl)c2)cnc2cc3c(cc12)OCO3	0	-6	.	.	.	.	-1%	14	3.6	0.3
COc1ccc(C(C)NC(=O)Nc2ccc(C(C)=O)cc2)cc1OC (stereo not given)	-5	17	-19	4	12	0.5	.	-8	4.2	-0.7
COc1ccc(-c2nc3ccc(C)cn3c2NCc2ccc3c(c2)OCO3)cc1	1	-21	2.9	-4	-3	-1.3	6%	29	2.3	-1.7
CCCN(CC(=O)Nc1ccc(F)c(F)c1F)C(=O)C1CC(=O)N(Cc2ccccc2)C1 (stereo not given)	-8	-8	-7.6	0	-2	-1.5	4%	-7	-3.3	0.2

Next section:
SMILES	Beta apoptosis	Calb FLC	MLL AF4-AF9 inh	Ecoli rRNA inh	Ecoli rRNA inh OD600	Ecoli rRNA inh RFP	Vif A3G	T cruzi repl	RanGTP-Imp inh	A1 inh
O=S(=O)(c1ccc(Oc2ccc(Cl)cc2)c(S(=O)(=O)N2CCCCC2)c1)N1CCCCC1	-11	-8	.	.	.	.	1%	50	-0.6	-0.1
CCOc1cc(CNCC2CCCN2CC)cc(Cl)c1OC (stereo not given)	-2	2	-4.4	4	-2	5.3	3%	0	0.5	0.5
COc1ccc(NC(=O)c2oc3ccccc3c2NC(=O)C2CC2)cc1	10	15	.	.	.	.	-9%	10	3.4	?
COc1ccc(C(C[N+](=O)[O-])c2c(C)cc3ccccn23)c(OC)c1 (stereo not given)	-4	-4	5.1	-4	6	0.6	12%	26	1.7	0.4
O=C(OCc1nnc(-c2ccc(Br)cc2)o1)c1ccco1	-1	-2	-1.9	-13	-7	-1.7	.	2	3.6	0.3
COc1ccc(S(=O)(=O)N2CCOCC2)cc1NC(=O)c1cccc(-n2cccc2)c1	-10	-3	6.7	-2	4	4.7	10%	5	-1.9	-0.7
CC(=O)Nc1cccc(C(=O)OCC(=O)NNC(=O)c2ccc([N+](=O)[O-])cc2)c1	-3	10	0.0	-2	4	-2.2	.	0	-3.6	-1.2
CC1CC(OCC(O)CN2CCCCC2C)CC(C)(C)C1 (stereo not given)	0	2	0.4	10	2	11	.	-16	-2.8	-0.7
O=S(=O)(NCC(c1cccnc1)N1CCN(c2ccccc2)CC1)c1cccs1 (stereo not given)	-4	5	.	.	.	.	3%	46	1.3	-0.5
CCCCn1cc(S(=O)(=O)c2ccccc2)c(=O)c2cc(C)ccc21	-7	1	1.4	0	-7	-2.5	-12%	-3	2.7	1.4
CCC1CCCCN1C(=O)CSc1nc2c(c(=O)n1C)SC(C)C2 (stereo not given)	3	1	1.9	4	-7	-2.0	-1%	-24	-0.6	0.8
N#Cc1c[nH]n2c(=O)cc(Cc3ccccc3)nc12	-2	21	.	.	.	.	3%	9	-24	-0.2
Cc1[nH]n2c(=O)c3c(nc2c1-c1ccc(Cl)cc1)CCC3	-1	24	.	.	.	.	2%	-7	-0.7	1.1
O=C(COc1ccc2c(c1)OCO2)Nc1cccc(F)c1	-12	-24	2.4	3	6	-1.4	.	-1	-1.4	-7.8
COc1ccc(Cl)cc1C(=O)OCC(=O)N(C)CC(=O)Nc1ccc(F)cc1	-3	0	0.6	3	-3	-0.5	-1%	-2	-2.3	0.0
Cc1cc(NC(=O)c2ccccc2)no1	6	-1	1.1	14	14	-1.2	15%	-4	0.5	-2.6
Cn1c(=O)[nH]c(=O)c2c1nc1n2CCN1Cc1ccccc1	-2	18	.	.	.	.	-1%	3	4.6	?
O=[N+]([O-])c1ccc(-n2cnc3ccccc32)c([N+](=O)[O-])c1	118*	-2	0.2	17	11	-1.1	6%	71*	0.7	-0.2
CC1Cc2cccc3c(O)c(C(=O)c4nn[nH]n4)c(=O)n1c23 (stereo not given)	2	2	-14	11	0	4.5	.	3	-4.0	0.9
CN(C(=O)COC(=O)c1cc2c(s1)CCCCC2)c1ccccc1	-7	16	-3.7	-39	-68	-5.1	0%	-11	5.6	0.0
O=C(CCc1ccccc1)N=C1SC2CS(=O)(=O)CC2N1c1cccc(F)c1 (stereo not given)	-5	12	-14	6	14	-0.2	.	2	0.7	-0.4
O=S(=O)(NCc1ccccc1)c1cnc[nH]1	.	-2	.	.	.	.	-1%	-16	-0.8	-0.7
Oc1ccccc1C1=NOC(O)(C(F)F)C1 (stereo not given)	-6	-1	.	.	.	.	-4%	-12	-4.3	-0.1
CCn1c(SCC(=O)Nc2ccc(OC)c(OC)c2)nc2c(c1=O)SCC2	-10	2	-0.8	-3	-16	-2.2	.	14	1.8	-0.4
Cc1ccc(CSc2ncnc3c2cnn3-c2ccc(C)cc2)cc1	-5	-5	.	.	.	.	.	-29	?	0.3

Continuation:
SMILES	Beta apoptosis	Calb FLC	MLL AF4-AF9 inh	Ecoli rRNA inh	Ecoli rRNA inh OD600	Ecoli rRNA inh RFP	Vif A3G	T cruzi repl	RanGTP-Imp inh	A1 inh
O=C1CC(c2ccco2)Cc2c1cnn2-c1nc2ccccc2s1 (stereo not given)	0	-7	-2.3	11	11	2.2	2%	-7	-1.9	0.3
Nc1c(Cl)ncnc1NCCO	-6	-22	-1.2	14	11	2.6	11%&-5%	-5	0.4	-2.0
C/C(=N\NC(=O)c1c(Cl)c(C)nn1C)c1cccc(NC(=O)C2CCCC2)c1	.	9	-0.4	-7	-19	-1.6	-10%	1	-1.6	0.1
COc1ccc(-n2c(SCC(=O)C(C)(C)C)nc3ccsc3c2=O)cc1	4	0	-0.7	2	15	-3.5	.	14	1.6	-0.4
Cc1cccc(C(=O)N2CCCN(C(=O)c3cccc(C)c3)CC2)c1	-9	1	.	.	.	.	0%	-8	3.3	0.3
S=C(Nc1cccnc1)N1CCc2ccccc21	-2	1	1.9	3	8	-1.9	6%	4	-2.1	1.4
Cc1cccc(OCc2nnc(SCC(=O)N3CCCC3)n2C)c1	-5	20	.	.	.	.	3%	-3	-3.4	1.0
CN1CCN(c2ccc(NC(=O)c3cccs3)cc2)CC1	5	?	4.4	16	8	0.3	16%	4	-1.5	-5.2
O=C(Oc1c(-c2ccccc2)c(=O)n2c3c(cccc13)CC2)c1ccccc1	3	21	3.9	-28*	-18*	-2.9*	3%	5	2.1	-0.4
CCOC(=O)C1CCN(C=Nc2cc(C)on2)CC1	0	-5	.	.	.	.	6%	3	5.1	-0.1
O=C(CSc1nnc(-c2cccs2)n1-c1ccccc1)Nc1ccccc1	-4	1	.	.	.	.	-222%	17	-3.2	1.6
CCCc1cc(=O)oc2cc(O[C@@H]3O[C@H](CO)[C@@H](O)[C@H](O)[C@H]3O)ccc12	2	3	-0.4	-2	-3	8.4	-3%	-6	3.5	0.0
O=C(CSc1nc2[nH]ncc2c(=O)[nH]1)Nc1ccccc1F	.	2	-3.3	3	12	3.5	3%	-8	-0.2	0.1
COc1ccccc1Nc1nc(NCc2ccco2)nc(N)c1[N+](=O)[O-]	-7	6	-1.1	11	14	3.2	-7%	10	?	0.0
Cc1ccc(SCCC(=O)NC(C)C)cc1	4	-10	.	.	.	.	-3%	4	2.0	-0.3
NC(=S)N/N=C/c1ccccc1	-6	9	.	.	.	.	.	-1	1.9	0.7
Cc1cccc(N2CCN(C(=O)Cn3cccc3)CC2)c1C	-4	-3	5.8	-3	9	-4.4	?	-15	0.9	-1.3
COc1cc(NS(=O)(=O)c2ccc(NC(=S)NC(=O)c3sc4cc(F)ccc4c3Cl)cc2)nc(OC)n1	0	54	-0.5	-10	-8	15	.	-1	-2.2	-0.7
